HCMV UL50-53 inh – inhibitors of HCMV UL50-UL53 interaction, biochemical, HTRF; inhibition, % (test concentration not listed); normalized percent inhibition; HCMV UL50-UL53 nuclear egress complex (human cytomegalovirus); AID 1918969, 2023; 190,000 compounds, 0.15% hits;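 active means both replicates at 50% or more, plus weaker picks with an unusually low signal ratio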;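 further: stock transfer was 100 nL into about 20 µL; 0% = negative control wells and 100% = wells with untagged competitor protein; inactives centre near -12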
GIV-Gai inh – inhibitors of GIV peptide binding to Galpha-i3, primary screen, biochemical, fluorescence polarization, FITC-GIV GBA peptide, rat Galphai3; 210,000 compounds, 0.42% hits; Guanine nucleotide-binding protein G(i) subunit alpha-3 (Rattus norvegicus), P08753; AID 1224905, 2016; 90 min; hits give low values; scaled: aluminum fluoride 0%, vehicle 100%; percent of control (FP), % (test concentration not listed);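 active means replicate mean at 85% of control or lower, very high polarization wells dropped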;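 further: wells of about 15 µL received 100 nL stock; the first replicate is given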
Target sequence (P08753 whole entry, looked up): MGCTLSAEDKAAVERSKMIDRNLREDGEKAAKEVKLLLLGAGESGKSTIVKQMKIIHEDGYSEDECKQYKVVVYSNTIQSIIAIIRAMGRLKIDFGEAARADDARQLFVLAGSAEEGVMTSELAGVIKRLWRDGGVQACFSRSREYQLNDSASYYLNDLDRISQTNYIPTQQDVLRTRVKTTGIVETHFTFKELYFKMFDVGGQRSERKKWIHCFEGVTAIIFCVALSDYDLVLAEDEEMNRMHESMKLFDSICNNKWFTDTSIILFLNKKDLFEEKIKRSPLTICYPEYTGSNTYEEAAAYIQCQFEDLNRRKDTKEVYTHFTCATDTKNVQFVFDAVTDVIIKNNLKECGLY
Sa growth inh – S. aureus growth inhibition at 42 and 30 °C, primary screen, LtaS inhibitor project, RN4220, two temperatures | OD600, 20 h, 42 °C; hits give low values | relative growth, % (no concentration beside the values) | 170,000 compounds, 0.53% hits;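 active means growth at 42 °C up to 50% and 20 or more points under that at 30 °C, or under 10% at both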;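 further: 300 nL library stock went into each well; scaled to the means of positive and negative controls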
Sa growth inh second temp – further read-out of Sa growth inh, marked with its call; relative growth, %; measured here: growth at 30 °C;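 optical density after 20 h as mean of two plates; 100% = untreated growth and lower means inhibition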
The depositor's hits bear a star; x = no result given; & = joins results of further samples.

Values run as follows: GIV-Gai inh | Sa growth inh second temp | HCMV UL50-53 inh | Sa growth inh
CCNC(=O)c1ccc2c(c1)sc1nc(-c3cccc(OC)c3)cn12
→ 109 | 91 | x | 137
Cc1ccc(C)n1-c1ncc(Br)cn1
→ 103 | x | -15 | x
CC(=O)Nc1ccc(C(=S)N2CCN(c3ccccc3O)CC2)cc1
→ x | 92 | -1 | 116
CCOc1ccccc1C(=O)Nc1cc2c(cc1N1CCCCC1)n(C)c(=O)n2C
→ 101 | 85 | -3 | 79
CC(C)c1ccc(NC(=O)COc2ccccn2)cc1
→ x | 94 | 0 | 121
Cc1cc(C(=O)C(C)Sc2nnc(-c3ccc4c(c3)OCO4)o2)c(C)n1-c1ccc(OC(F)F)cc1 (stereo not given)
→ x | 89 | -15 | 93
CC(=O)c1ccc(NC(=O)c2noc3c2CCc2ccccc2-3)cc1
→ 103 | 88 | -33 | 102
CCC(=O)Nc1ccc(N2CCCCS2(=O)=O)cc1
→ 104 | 86 | -33 | 93
COC(=O)c1c(NC(=O)C2Cc3ccc(C)cc3C(=O)O2)sc2c1CCCC2 (stereo not given)
→ 100 | x | -24 | x
O=c1[nH]nc(SCc2nnc(-c3cccc(Cl)c3)o2)n1C1CCCCC1
→ 104 | 95 | -14 | 102
O=C(c1ccc(Cl)cc1)N1N=C(c2cccc([N+](=O)[O-])c2)CC1(O)C(F)(F)F (stereo not given)
→ 103 | x | -14 | x
C=CCNC(=O)CN1C(=O)CSc2ccc(C(=O)N(CC)CC)cc21
→ 109 | x | -8 | x
O=C(NCc1ccc(Cl)cc1)c1ccc(CSc2nc3ccncc3[nH]2)cc1
→ 105&103 | 63 | 9 | 118
Cc1ccc(-c2cc(N3CCc4ccccc43)nc(C)n2)cc1
→ 105 | x | 19 | x
CC[C@@H]1OC(=O)C[C@H](O)[C@@H](C)[C@@H](O[C@@H]2O[C@H](C)[C@@H](O[C@H]3C[C@@](C)(O)[C@@H](O)[C@H](C)O3)[C@H](N(C)C)[C@H]2O)[C@@H](C=O)C[C@@H](C)C(=O)/C=C/C(C)=C\[C@@H]1CO[C@H]1O[C@@H](C)[C@H](O)[C@H](OC)[C@@H]1OC
→ 98 | -0.5* | -31 | -1.0*
COc1nc(C)cc(C)c1C(=O)O
→ 99 | 94 | -4 | 132
CCN=C1SC(CC(=O)Nc2sc3c(c2C(=O)OCC)CCCC3)C(=O)N1CC (stereo not given)
→ 102 | 89 | x | 95
CCOc1ccc(C2C(C(=O)OC)=C(N)OC3=C2C(=O)CC(c2ccccc2)C3)cc1 (stereo not given)
→ 108 | x | -11 | x
COC(=O)c1ccccc1NC(=O)CN1CCN(c2ccc(F)cc2)CC1
→ 96 | x | -14 | x
O=C(Nc1csc(-c2cccs2)n1)Nc1ccc(F)cc1F
→ 106 | 76 | -34 | 101

Values run as follows: GIV-Gai inh | Sa growth inh second temp | HCMV UL50-53 inh | Sa growth inh
Cn1c(=O)oc2cc(S(=O)(=O)NCCC(=O)Nc3ccc(F)cc3F)ccc21
→ 104 | 87 | -36 | 104
CCCC(C)NC(=O)c1ccccc1 (stereo not given)
→ x | 91 | -8 | 95
C/C(=C\C(=O)c1ccccc1)Nc1ccc2c(c1)OCO2
→ 104 | 84 | -12 | 100
CC(=O)Oc1ccc(OC(C)=O)c2cc3c(OC(C)=O)ccc(OC(C)=O)c3cc12
→ 97 | 84 | -23 | 114
COCCCNC(=O)CN1C(=O)c2cccnc2Sc2ccccc21
→ 97 | 89 | x | 86
COc1ccc(-c2noc(CNC(=O)c3ccco3)n2)cc1
→ 106 | 89 | -23 | 104
CC(=O)N(/C=C1\Sc2ccccc2C1=O)N1CCCCC1
→ x | 86 | -19 | 100
Cc1ccccc1NC(=O)C(N)=S
→ x | 91 | 8 | 85
CCOc1ccc(N2CC(c3nc4ccccc4n3Cc3cccc(C)c3)CC2=O)cc1 (stereo not given)
→ 101 | 87 | -25 | 95
O=C(NC1CCCCC1)c1ccc2cn[nH]c2c1
→ 109 | x | -13 | x
Cc1noc2c1C(c1ccc(O)c(O)c1)C1=C(CC(C)(C)CC1=O)N2 (stereo not given)
→ 103 | x | -1 | x
CSCCN1C(=O)NC2(CCC(C)CC2)C1=O (stereo not given)
→ x | 92 | -18 | 91
O=C(Nc1ccc(F)cc1)c1cc2cc(Cl)ccc2[nH]1
→ 99 | 76 | -17 | 90
Cc1nc2c(cnn2C(C)C)c(C)c1CCC(=O)OC(C)C(=O)Nc1ccc(C(N)=O)cc1 (stereo not given)
→ x | 82 | -16 | 88
CCc1ccc(NC(=O)CSC2=Nc3ccccc3C3=NC(CC(=O)NCc4ccccc4)C(=O)N23)cc1 (stereo not given)
→ 103 | 92 | x | 75
Cn1c(SCC(=O)NN)nc2ccccc21
→ x | 96 | 1 | 98
CC1CCCCN1C(=O)c1cccc(C(=O)N2CCCCC2C)c1 (stereo not given)
→ 102 | 86 | -9 | 113
COCCCNC(=O)C1CCC(Cn2c(=O)c3sccc3n(C)c2=O)CC1 (stereo not given)
→ 106 | 98 | x | 110
N#C/C(=C(/O)CSc1n[nH]c(=O)[nH]c1=O)c1nc2ccccc2[nH]1
→ x | 88 | -19 | 89
Cc1ccc(CCNC(=O)COc2ncnc3oc(C)c(C)c23)cc1
→ 102 | x | 2 | x

Values run as follows: GIV-Gai inh | Sa growth inh second temp | HCMV UL50-53 inh | Sa growth inh
O=C(c1ccc(-c2noc(C3CC3)n2)cc1)N1CCN(c2nc3cccnc3o2)CC1
→ 101 | x | -17 | x
O=C(COc1ccc(/C=N/NC(=O)CSc2ncccn2)cc1)NCC1CCCO1 (stereo not given)
→ 102 | 94 | -25 | 92
CN1CCN(C(=O)CN2C(=O)S/C(=C\c3ccc(Br)cc3)C2=O)CC1
→ 102 | x | -32 | x
O=S(=O)(c1ccccc1)c1nc(-c2ccccc2Cl)oc1Nc1ccc(N2CCOCC2)cc1
→ x | 90 | -25 | 101
COc1ccc(NC(=O)C2CCN(C(=O)c3sc4nc[nH]c(=O)c4c3C)CC2)cc1Cl
→ 106 | 87 | x | 87
Cc1ccc(/C=C/C2=CC(=C(C#N)C#N)CC(C)(C)C2)o1
→ x | 90 | -28 | 60
COc1ccc(-n2nnnc2SCc2cc(=O)oc3cc(O)ccc23)cc1
→ x | 89 | 4 | 103
O=C(Oc1ccc(Cl)cc1)c1csc(C2COc3ccccc3O2)n1 (stereo not given)
→ 107 | 93 | -16 | 93
Cc1ccc(Cn2c(=O)c3ccccc3n3c(SCc4cc(=O)n5ccsc5n4)nnc23)cc1
→ x | 97 | -24 | 84
Fc1cccc2c1N[C@@H](c1ccccn1)[C@H]1CC=C[C@@H]21
→ 103 | 91 | -1 | 94
CCN(CC)S(=O)(=O)c1cccc(C(=O)OCC(=O)c2ccc3c(c2)OCO3)c1
→ x | 90 | -6 | 92
O=C(CN1C(=O)CCCc2ccccc21)NCCCN1CCCC1
→ 117 | x | -2 | x
Cc1ccc(N(O)S(=O)(=O)c2ccc(C)cc2)cc1
→ x | 74 | -30 | 86
CSc1ccccc1N1C(=O)C2CC=CCC2C1=O (stereo not given)
→ 103 | 86 | x | 110
Cc1ccc(Nc2nc(N3CC(C)OC(C)C3)nc3c2cnn3C)cc1Cl (stereo not given)
→ 103 | 54 | x | 75
O=C(CO)Nc1ccccc1Sc1ccccc1
→ x | 91 | -26 | 78
N#Cc1c(NC(=O)/C=C/C(=O)O)sc2c1CCC2
→ 104 | 92 | x | 104
CC1=C(C(=O)Nc2ccc(Cl)cc2C(=O)N2CCCCCC2)SCCO1
→ 98 | 93 | x | 86
CCCCc1c(C)c(C#N)c2nc3ccccc3n2c1NCCN1CCOCC1
→ 97 | 80 | x | 122
O=C(CN1C(=O)c2ccccc2S1(=O)=O)NC12CC3CC(CC(C3)C1)C2
→ 101 | 87 | -14 | 98

Values run as follows: GIV-Gai inh | Sa growth inh second temp | HCMV UL50-53 inh | Sa growth inh
Cc1ccc(C)c(NC(=S)N2CCC(c3nc4ccccc4o3)CC2)c1
→ 110 | 101 | 13 | 100
COc1cc(CC(=O)Oc2ccc(-c3nnco3)cc2)cc(OC)c1OC
→ x | 91 | -11 | 100
CCN1C(=O)c2cccc3c(NC(=O)c4ccc(S(=O)(=O)N5CCCCC5C)cc4)ccc1c23 (stereo not given)
→ 118 | 88 | x | 92
CC1CC(C)CN(C(=O)CSc2nc3cc4c(cc3c(=O)n2CCC2=CCCCC2)OCO4)C1 (stereo not given)
→ 103 | 85 | -28 | 102
CCOc1ccc(Nc2cc(C(=O)NCc3ccco3)c3ccccc3n2)cc1
→ 111 | 96 | -2 | 96
Nc1ccccc1SC/C=C/c1ccccc1
→ 105 | x | -12 | x
Cc1ccc(NC(=O)C2CCC(CNS(=O)(=O)c3csc(C(N)=O)c3)CC2)cc1Cl (stereo not given)
→ 97 | 85 | x | 93
CCOc1ccc(NC(=O)CSc2nc(-c3ccccc3)nc3c2Cc2ccccc2O3)cc1
→ 99 | x | -36 | x
COc1ccc(CCN2C(=O)C3C4C=CC(C4)C3C2=O)cc1OC (stereo not given)
→ 98 | x | -7 | x
CCOC(=O)C1CCCN(CCP(=O)(c2ccccc2)c2ccccc2)C1 (stereo not given)
→ 105 | 77 | x | 103
Cc1nn(C2CCS(=O)(=O)C2)c(Cl)c1CNCC1CN(CC(C)C)CCO1 (stereo not given)
→ x | 92 | -24 | 81
Clc1ccc(SCCCN2CCCCC2)cc1
→ 96 | x | -10 | x
Cc1cccc(C(=O)Oc2ccc(C#N)cc2)c1
→ 103 | 78 | -2 | 113
CC1OC(=O)N(c2cc(Cl)cc(Cl)c2)C1=O (stereo not given)
→ 100 | 102 | 6 | 106
CC(Nc1nc(N2CCOCC2)nc2ccccc12)c1ccccc1 (stereo not given)
→ x | 77 | -9 | 82
COCCNC(=O)c1ccc2c(c1)ncn2-c1cc(C)ccc1OC
→ 105 | 89 | x | 108
Cn1nccc1N1C(=O)C2=C(SCCS2)C1=O
→ 103 | 93 | -3 | 110
Cc1ccc(-c2nn(C)c(=O)c3ccccc23)cc1S(=O)(=O)N1CCOCC1
→ 107 | 86 | x | 100
Cc1ccc(NC(=O)CSc2nc3ncccc3[nH]2)cc1C
→ 99 | x | -8 | x
CC1CN(CC2COC(C)(C)O2)CC(C)O1 (stereo not given)
→ x | 90 | -1 | 104

Retrieved one by one from the entries so far:
Values run as follows: GIV-Gai inh | Sa growth inh second temp | HCMV UL50-53 inh | Sa growth inh
Cc1nn(C2CCS(=O)(=O)C2)c(Cl)c1CNCC1CN(CC(C)C)CCO1 (stereo not given)
→ x | 92 | -24 | 81
Nc1ccccc1SC/C=C/c1ccccc1
→ 105 | x | -12 | x

Six structures already listed, ordered by molar mass, lowest first.
Values run as follows: GIV-Gai inh | Sa growth inh second temp | HCMV UL50-53 inh | Sa growth inh
CC1CN(CC2COC(C)(C)O2)CC(C)O1 (stereo not given)
→ x | 90 | -1 | 104
Cc1ccc(NC(=O)CSc2nc3ncccc3[nH]2)cc1C
→ 99 | x | -8 | x
COc1ccc(CCN2C(=O)C3C4C=CC(C4)C3C2=O)cc1OC (stereo not given)
→ 98 | x | -7 | x
Cc1ccc(C)c(NC(=S)N2CCC(c3nc4ccccc4o3)CC2)c1
→ 110 | 101 | 13 | 100
CCOc1ccc(Nc2cc(C(=O)NCc3ccco3)c3ccccc3n2)cc1
→ 111 | 96 | -2 | 96
CCOc1ccc(NC(=O)CSc2nc(-c3ccccc3)nc3c2Cc2ccccc2O3)cc1
→ 99 | x | -36 | x

Later entries.
Values run as follows: GIV-Gai inh | Sa growth inh second temp | HCMV UL50-53 inh | Sa growth inh
CC(C)(C)NC(=O)c1cccc(NC(=O)CCC(=O)O)c1
→ 95 | 79 | x | 120
CCC1CN(C(=O)NCc2cccc(OC)c2)c2cc(Cl)ccc2O1 (stereo not given)
→ 100 | 96 | -7 | 87
CC1CN(C(=O)C(C)N2CCc3ccccc32)CC(C)O1 (stereo not given)
→ x | 101 | -7 | 91
Cc1ccc(OCCn2c(CCNC(=O)C(C)(C)C)nc3ccccc32)cc1
→ 104 | x | -24 | x
O=C(Nc1ccc(F)c(Cl)c1)C1CCCN(S(=O)(=O)c2cccc3nsnc23)C1 (stereo not given)
→ 104 | 87 | -31 | 107
O=C(O)c1ccccc1-c1ncc(-c2ccccc2)o1
→ 102 | 106 | -11 | 114
CSc1nnc(SCc2cc(=O)oc3cc(O)ccc23)s1
→ 102 | 77 | -57 | 105
CCc1ccc(/C=C(\C#N)S(=O)(=O)c2ccccc2)s1
→ 108 | 97 | -10 | 95
O=C1CC(c2cc(F)cc(F)c2)c2cc3c(cc2N1)OCO3 (stereo not given)
→ 104 | 90 | -8 | 101
COC(=O)C1Cc2ccccc2CN1C(=O)CSc1nnc(-c2cc3c(s2)CCC(C)C3)o1 (stereo not given)
→ x | 89 | -24 | 114
Cc1ccc(N(C(=O)c2ccccc2)C2CS(=O)(=O)CC2OC(=O)c2ccccc2)cc1 (stereo not given)
→ 105 | 99 | x | 118
COC(CNC(=O)c1ccc(CS(=O)(=O)Cc2ccccc2F)o1)OC
→ 105 | 91 | -28 | 89

Profiles, quoted from the list.
CC(C)(C)NC(=O)c1cccc(NC(=O)CCC(=O)O)c1 as listed: GIV-Gai inh = 95; Sa growth inh second temp = 79; HCMV UL50-53 inh = x; Sa growth inh = 120
O=C1CC(c2cc(F)cc(F)c2)c2cc3c(cc2N1)OCO3 (stereo not given) as listed: GIV-Gai inh = 104; Sa growth inh second temp = 90; HCMV UL50-53 inh = -8; Sa growth inh = 101

From PubChem
